Tg IFNy HTS – T. gondii growth inhibition with IFN-gamma, primary screen, cell-based | Toxoplasma gondii growth in IFN-gamma-treated host cells; stronger effect = lower value; reference of the scale not given here | hit rate 3.8% among 69,000 | activity change, negative = inhibition, %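 (about 20 µM by stock and volumes)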;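 active means below -70%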;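 further: host cells are HeLa cells infected with Toxoplasma gondii; parasite growth read as luciferase light; one replicate is shown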
Active calls of the source: *; i = inactive; & = joins results of further samples. Only part of the results is shown (hit frequency here may not be typical).

entry	Structure	Tg IFNy HTS
1	Cn1cc(CN2CC[C@H]3[C@@H]2CCN3C(=O)C2CCOC2)cn1 (stereo partly specified)	-3.4
2	CCN1CCn2cc(C(=O)N3CCN(c4cc(C)ccc4C)CC3)nc2C1	54.7
3	CO[C@@H]1CC[C@H]2CCN(C)C(=O)[C@H](C)N(C)C(=O)c3cccc(C#N)c3OC[C@H]1O2	7.7
4	CCCNC(=O)N1[C@@H]2CN(C(=O)Nc3cccc(Cl)c3)c3ccccc3[C@@H]2[C@@H]1CO	7.9
5	C[C@@H]1CN([C@H](C)CO)C(=O)c2cc(NS(=O)(=O)c3cn(C)cn3)ccc2O[C@@H](C)CCCCO[C@H]1CN(C)C(=O)Nc1ccc(C(F)(F)F)cc1	115.7
6	CNC[C@H]1OCCCC[C@@H](C)Oc2ccc(NC(=O)Nc3ccc(OC)cc3)cc2C(=O)N([C@H](C)CO)C[C@H]1C	i
7	COc1ccccc1CC(=O)N1CCC2(CC1)CNC(=O)C2	3.6
8	COc1ccc(-c2ccc(OC)cc2C(=O)NC(C)Cc2ccccn2)cc1 (stereo unspecified)	3.9
9	CN(C)c1ccc(NC(=O)c2ccc(N3CCOCC3)nc2)cc1	59.1
10	CN(CCc1ccccn1)C1CCCN(C(=O)c2ccc(=O)[nH]c2)C1 (stereo unspecified)	2.1
11	CCCC[C@H](C)C[C@H](O)/C=C/[C@H]1[C@H](O)CC(=O)[C@@H]1CCCC/C=C/C(=O)O	39.0
12	O=C(Cc1ccc(F)cc1)N1CCC2(CC1)Nc1ccccc1-n1cccc12	25.6
13	O=C(O)c1cc(Br)cc(S(=O)(=O)NCc2ccccn2)c1	-1.0
14	Cc1cc(C)cc(NC(=O)C(=O)NCCc2sc(-c3cccc(F)c3)nc2C)c1	13.2
15	COCC(=O)N1CCC2(CC1)CN(Cc1cc(F)ccc1F)[C@@H](CO)c1c2c2ccc(OC)cc2n1C	29.1
16	Cc1cc(CN2CCCC2)cc(Oc2ccc(C(N)=O)cn2)c1	0.8
17	COc1ccccc1NC(=O)N1C[C@H]2[C@@H](c3ccccc31)[C@@H](CO)N2Cc1ccc2c(c1)OCO2	2.5
18	COc1ccc(CN2C[C@H](N3CCOCC3)C3OCCCC32)cc1 (stereo partly specified)	-0.8
19	CCOC(=O)c1nc(N2CCN(c3ccccn3)CC2)c2ccccc2n1	36.1
20	CCN(CC)C(=O)[C@@H]1C[C@@H](N)CN1C(=O)Cc1ccc2nc(C)[nH]c2c1	-14.3
21	C=CCn1nc(C(=O)O)c2c1CCC(N(C)Cc1nonc1C)C2 (stereo unspecified)	6.8
22	O=C(O)C1CCCN1c1ncnc2ccccc12 (stereo unspecified)	-10.7
23	Cc1c(C(=O)N2CCC3(CC2)CC(O)(c2nccs2)CO3)oc2ccccc12 (stereo unspecified)	-14.2
24	O=C(O)c1cccnc1CN(Cc1ccsc1)C1CC1	-32.5
25	COC(=O)[C@@H]1C[C@@H](NC(=O)CCc2nc3c(C)c(C)ccc3[nH]2)CN1C	4.0
26	CCOc1ccccc1-c1nnc(NC(=O)Cc2ccc3nc(N)sc3c2)s1	-11.0
27	O=c1[nH]cnc2c1cnn2[C@@H]1O[C@H](CO)[C@H](O)C1O (stereo partly specified)	16.7
28	CN1CCN2c3ncccc3Cc3ccccc3C2C1 (stereo unspecified)	19.1&14.9
29	OC[C@H]1[C@@H](c2ccccc2)C2(CN(Cc3cccnc3)C2)N1Cc1ccncc1	-6.9
30	COc1ccc2c(Oc3ccc(NC(=O)c4c(C)n(CC(C)(C)O)n(-c5ccccc5)c4=O)nc3)ccnc2c1	-73.3*
31	CCCCC1C=CCN1C(=O)c1c(O)cccc1O (stereo unspecified)	1.5
32	CCOC(=O)C1=C2c3ccc4ccccc4c3CC(C)(C)N2C(=O)C1=O	48.5
33	CSc1ncccc1C(=O)Nc1ccc2c(c1)CCC(=O)N2C	65.3
34	Cc1nc2c(nc(SCc3nc(-c4ccc(OC(C)C)cc4)oc3C)n2C)c(=O)[nH]1	-8.6
35	O=C(CCc1cccc(F)c1)N(Cc1ccccn1)CC1CCCO1 (stereo unspecified)	-24.7
36	CCCN1CCN(C(=O)Cn2cc(C)nn2)CC(Cc2ccc(-c3cccnc3)cc2)C1=O (stereo unspecified)	25.4
37	S=c1[nH]nc(-c2c[nH]c3ccccc23)o1	115.2
38	COCCC(=O)C1CC2(CO1)c1ccccc1CN2Cc1ccccc1 (stereo unspecified)	132.5
39	Cc1cccc(NC(=O)C(=O)NCCc2sc(-c3cccc(F)c3)nc2C)c1C	123.2
40	CCc1ccc(S(=O)(=O)N2CC(C(=O)N3CCCC3)C3(CCOCC3)C2)cc1 (stereo unspecified)	-47.4
41	CN1CCCn2nc(C(=O)NCCn3nnc4ccccc43)cc2C1	127.3
42	CCN1C(=O)CCc2cc(NS(=O)(=O)c3ccc4c(c3)OCCO4)ccc21	-54.4
43	C=CCc1c(NCCO)nc(C)[nH]c1=O	-1.8
44	Nc1ccc2c(c1)nc(CO)n2CCCO	23.7
45	Cc1nnc(-c2c(C)[nH]c(C)c2S(=O)(=O)N2CCC(N3CCCCC3)CC2)o1	-11.9
46	O=C(CO)N1C[C@H]2c3ccccc3C(OCC3CC3)[C@@H]2C1 (stereo partly specified)	8.1
47	COc1cccc(C(=O)Nc2ccc3c(c2)C(=O)N(C)[C@H]2CC[C@H](CC(=O)N[C@H](C)c4ccccc4)O[C@H]2CO3)c1	-6.9
48	Cc1cccc(C2CCCN(c3ncccn3)C2)n1 (stereo unspecified)	120.5
49	CCC1(CC)CN(C(=O)c2ccc(CC3CCCNC3)cc2)CCO1 (stereo unspecified)	-24.6
50	COCC1CCC2(CCN(C(=O)C3CC=CC3)CC2)N1S(C)(=O)=O (stereo unspecified)	-2.2
51	O=C(c1cc2n(n1)CCNC2)N1CCCC(OCc2ccccn2)C1 (stereo unspecified)	10.1
52	Cc1nc(CN2CCN(C)C(=O)C23CCN(Cc2cccc(C#N)c2)CC3)cs1	7.5
53	COc1ccc(S(=O)(=O)N2CCC(c3nc(C(=O)N(C)C)c(C)o3)CC2)cc1Cl	-32.4
54	CN(C)C(=O)N1CCC2(CC1)CC(OCC1CCOCC1)CO2 (stereo unspecified)	0.8
55	CCOCC1CN(C(=O)c2ccsc2)Cc2cn(CC3CC3)nc21 (stereo unspecified)	-9.8
56	O=C(C1CC1)N1CCC2(CC1)CNCc1ccccc12	1.2
57	CC(=O)NCc1csc(C2CCN(S(=O)(=O)c3cc(F)ccc3F)CC2)n1	-35.1
58	O=C1CCc2cc(S(=O)(=O)NCc3ccc(F)cc3)cc3c2N1CC3	-0.2
59	C[C@@H](NC(=O)C[C@@H]1C=C[C@@H](NS(=O)(=O)c2cccc(F)c2)[C@H](CO)O1)c1ccccc1	-2.7
60	CCOc1cccc(-c2ccccc2C(N)=O)c1	3.7

The listing continues:
entry	Structure	Tg IFNy HTS
61	CCN1Cc2ccccc2CC1C(=O)NCc1cnn2ccccc12 (stereo unspecified)	-2.7
62	NCC1Cc2cc(-c3cncc(C(=O)N4CCOCC4)n3)cc(Cl)c2O1 (stereo unspecified)	4.3
63	COCC(NCC(=O)Nc1ccc(Cl)c(C)c1)c1ccnn1C (stereo unspecified)	-5.0
64	CC(CNC(=O)c1cc(C2CCCCC2)no1)n1cncn1 (stereo unspecified)	21.0
65	O=C(O)C1C2C=CC(C2)C1C(=O)NCc1ccc(-c2cccs2)s1 (stereo unspecified)	7.6
66	Nc1ncc(C(=O)Nc2cnc3n2CCCC3)c(-c2ccccc2)n1	1.9
67	CCCCS(=O)(=O)N1C[C@H]2C[C@H](C(=O)N3CCOCC3)[C@@H](C1)O2	9.4
68	Cc1nc2ccccc2c2c1C(=O)NC2=O	-8.2
69	O=C(NCC1(Cn2ccnc2)CC1)C1CCOC1 (stereo unspecified)	17.0
70	Cc1nc(-c2ccc(-n3ccnc3-c3cc(CC(C)C)[nH]n3)cc2)n[nH]1	-1.9
71	COc1cc2c(cc1CN1CCC(O)(c3ccc(F)cc3)CC1)OCO2	-34.0
72	O=S1(=O)c2ccccc2C2(CCN(CC3CC3)C2)N1Cc1ccc(F)cc1 (stereo unspecified)	-47.1
73	C[C@H](O)C#Cc1ccc([C@H]2[C@@H](CO)N3CCCCN(C(=O)c4ccc5c(c4)OCO5)C[C@@H]23)cc1	3.3
74	Cc1oc(-c2ccc(C(=O)NCCc3ccc(Cl)cc3)cc2)nc1CN1CCc2ccccc21	-63.9
75	O=C1Nc2ccccc2OCc2cn(nn2)CC[C@H]1Cc1ccc(-c2ccccc2)cc1	-51.3
76	O=C(CCN1CCCCO1)Nc1cccc(NC(=O)Cc2ccccc2)c1	-5.2
77	COc1cccc2cc(-c3csc(-c4ccc([N+](=O)[O-])cc4)n3)c(=O)oc12	-4.8
78	CN1C(=O)CCc2cc(NS(=O)(=O)c3cccc4nsnc34)ccc21	45.7
79	CCOc1ccc(NC(=O)Cn2c(=O)ccc3cc(S(=O)(=O)N4CCCC4)ccc32)cc1	-10.3
80	CCn1ncc2c1C(COC)N(C(=O)COc1ccccc1)CC2 (stereo unspecified)	1.1
81	Cc1oc(-c2ccccc2)nc1Cn1cnc2nc3c(cc2c1=O)CC(C)CC3 (stereo unspecified)	20.4
82	COc1ccc(OC)c(NC(=O)N2CCc3nc(-c4ccccc4)sc3C2)c1	12.7
83	Cc1cc(C)c2nc(C)c(C(=O)NCCCn3ccnc3C(C)C)cc2c1	-21.0
84	O=C(CCSCc1ccccc1)NCc1ccco1	-41.2
85	CC(=O)N1CCNCC(C(=O)N(C)C)C1 (stereo unspecified)	-22.4
86	Cc1noc(-c2cc(=O)n(CC(=O)Nc3ccc(C)c(C)c3)c3ccccc23)n1	52.5
87	O=C(C[C@H]1CC[C@H]2NC[C@@H](O)COC[C@@H]2O1)N1CCc2ccccc2C1	5.8
88	Cc1ccc(C(=O)Nc2ccc(-c3nc(Cn4cccn4)c(C)o3)cc2)c(C)c1	-58.8
89	CC(=O)c1c(C)nn(CC(=O)NCc2nc3c(C)cccc3[nH]2)c1C	2.3
90	COc1cc(OC)c(NC(=O)N2CCC3(CC2)Nc2cc(F)ccc2-n2cccc23)cc1Cl	251.8
91	Cc1cc(N2CCCN(Cc3ccc(C)o3)CC2)ccn1	10.8
92	Cc1ccc(=O)n(CC(=O)N2C[C@H](C(=O)N(C)C)[C@]3(COc4ccccc4C3=O)C2)n1	12.9
93	CO[C@H]1CN(C)C(=O)c2cc(NC(=O)c3ccc(Oc4ccccc4)cc3)ccc2OC[C@H](C)NC[C@@H]1C	-91.9*
94	CCCc1cn(CC2CCN(C(=O)c3ccc4c(c3)OCO4)CC2)nn1	1.3
95	CN(C)C(=O)[C@]12CCCN(S(C)(=O)=O)C[C@@H]1CN(c1ccccn1)C2	-7.8
96	Cc1cc(C)n(CC(C)Nc2ccc(-c3nccn3C)nn2)n1 (stereo unspecified)	i
97	N#CCC(=O)C12CC3CC(CC(C3)C1)C2	115.9
98	O=C(Nc1ccccc1)c1cc2n(n1)CCNC2	75.2
99	COC[C@H](C)n1cnc(-c2ccccc2)c1-c1cc2c(cc1OC)OCO2	-26.1
100	CN(C)C(=O)c1cn(-c2nc(CNc3cccnc3)c3ccccn23)cn1	42.4
101	O=C(c1ccccc1)N1CCC(c2nnc(-c3ccsc3)o2)CC1	-14.1
102	Cc1ccc(C2(CNC(=O)c3sc(Cc4ccccc4)nc3C)CCOCC2)cc1	-1.6
103	O=C(CCSc1ccc(C(F)(F)F)cc1)c1ccco1	-27.9
104	Cc1ccc(S(=O)(=O)NCCCCCc2nc3ccccc3[nH]2)cc1	-15.1
105	CC1=C(C(=O)NCCC2=CCCCC2)C2(CCN(S(=O)(=O)c3cccs3)CC2)OC1=O	-3.2
106	CCn1c(-c2ccc3c(c2)CCO3)nc2cc(C(=O)OC)cnc21	-15.7
107	C[C@H]1CN([C@@H](C)CO)S(=O)(=O)c2ccc(-c3ccncc3)cc2O[C@H]1CN(C)S(C)(=O)=O	104.3
108	CC(=O)N1C(Nc2ccc(Cl)cc2)CCN1c1ccccc1 (stereo unspecified)	41.8
109	COc1ccc(S(=O)(=O)N2CCC3(CCCN(CC4CCOCC4)C3)C2)cc1 (stereo unspecified)	-19.4
110	Cc1ccc(NC(=O)CN(C)S(=O)(=O)c2ccc3[nH]c4c(c3c2)CCCC4)nc1	-54.4
111	CCOc1c(C(C)=O)c(=O)[nH]c2scc(C)c12	-7.3
112	COCCn1c(=S)[nH]c2cc(C(=O)N3CCC(O)(c4cccc(C(F)(F)F)c4)CC3)ccc2c1=O	-19.6
113	c1ccc2c(N3CCN(Cc4cccc5nccnc45)CC3)ncnc2c1	-17.4
114	CCc1ccccc1NC(=O)C(=O)NCCc1sc(-c2ccccc2)nc1C	-36.3
115	Cc1nn(C)c(Cl)c1CN(C)CC(C)N1CCOCC1 (stereo unspecified)	2.8
116	Cn1c(=O)n(C)c2cc3c(cc21)[nH]c(=O)c(=O)n3Cc1ccccc1	87.0
117	CC1CC(C)(C)Nc2ccc(OC(=O)C(C)N3C(=O)c4ccccc4C3=O)cc21 (stereo unspecified)	-1.1
118	CCc1cccc(C)c1NC(=O)Cn1c(=O)cc(C(=O)N2CCCC2)c2ccccc21	11.9
119	COc1cccc(-c2nc(CSc3nc4c(=O)[nH]cnc4n3-c3ccccc3)c(C)o2)c1OC	-54.0
120	Cc1ncc(C(=O)N(CCO)CCSc2ccc(Cl)cc2)cn1	3.6

An excerpt from above in order of molecular weight, highest first:
entry	Structure	Tg IFNy HTS
105	CC1=C(C(=O)NCCC2=CCCCC2)C2(CCN(S(=O)(=O)c3cccs3)CC2)OC1=O	-3.2
100	CN(C)C(=O)c1cn(-c2nc(CNc3cccnc3)c3ccccn23)cn1	42.4
94	CCCc1cn(CC2CCN(C(=O)c3ccc4c(c3)OCO4)CC2)nn1	1.3
96	Cc1cc(C)n(CC(C)Nc2ccc(-c3nccn3C)nn2)n1 (stereo unspecified)	i
115	Cc1nn(C)c(Cl)c1CN(C)CC(C)N1CCOCC1 (stereo unspecified)	2.8
97	N#CCC(=O)C12CC3CC(CC(C3)C1)C2	115.9
